Assay outcomes as filed in PubChem.
rRNA inh HTS – inhibits bacterial ribosomal RNA function over humanized ribosomes. E. coli WT GFP vs humanized-ribosome RFP mutants, fluorescence, 24 h; hits give low values; DMSO median 0, no signal -100. GFP signal change (wild-type ribosome), % (no concentration beside the values). hit rate 1.6% among 350,000. AID 720706;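 active means significant combined selectivity score with lowered wild-type GFP, culture density cut under 30%, mutant RFP and density less affected; inactive means any of these conditions unmet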; further: one replicate is shown; some compounds called inactive have numbers as strong as hits
E coli growth – inhibitors of Escherichia coli growth; OD600, 23 h; hits give low values; OD600 absorbance (no concentration beside the values); hit rate 0.21% among 330,000; AID 1053175;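 active means OD600 absorbance below the run mean of sample wells minus 3.6 SD, in any replicate, cut at about 0.56 in these data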;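 further: stock transfer was 300 nL into about 60 µL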
HNF4A DNA FP – change in binding of human HNF4 alpha to DNA | HNF4a-FITC DNA binding, fluorescence polarization, 1 h | activity change, % at 10 µM | hit rate 0.3% among 360,000 | AID 1224865; in the data active means activity change above about 30%, passing the limit was not always enough;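 further: controls were the assay level and a saturating level of protein; the project sought stronger binding though the title names inhibitors; some compounds called inactive have numbers as strong as hits; positive values seem to mean higher polarization but the record does not say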
Target sequence (P41235 whole entry, looked up): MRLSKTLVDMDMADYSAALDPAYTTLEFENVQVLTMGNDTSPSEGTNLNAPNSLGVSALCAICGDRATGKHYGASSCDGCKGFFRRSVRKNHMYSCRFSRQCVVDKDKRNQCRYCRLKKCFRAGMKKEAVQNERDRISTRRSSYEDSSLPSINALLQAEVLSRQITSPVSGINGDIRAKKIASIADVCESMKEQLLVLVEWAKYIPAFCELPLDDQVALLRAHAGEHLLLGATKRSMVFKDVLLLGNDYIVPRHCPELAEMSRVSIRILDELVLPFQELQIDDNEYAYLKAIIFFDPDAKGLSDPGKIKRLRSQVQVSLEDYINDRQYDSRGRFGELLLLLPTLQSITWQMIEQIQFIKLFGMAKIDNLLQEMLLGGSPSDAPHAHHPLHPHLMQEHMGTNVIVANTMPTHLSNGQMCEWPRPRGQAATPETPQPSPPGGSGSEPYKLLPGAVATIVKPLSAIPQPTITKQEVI
FGF22 binding – binders of recombinant human FGF22 by thermal shift | SYPRO orange fluorescence; percent of sucrose octasulfate shift, DMSO zero | calls only at 9.99 µM | hit rate 1.5% among 340,000;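 active means melting point raised past a set limit in the mean and every replicate; inconclusive means no clear call; three in four hits are not shown here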
UCH37 inh – inhibitors of human deubiquitinating enzyme UCH37; Q9Y5K5; purified proteasome/UCH37, Ub-AMC cleavage fluorescence; inhibition, % (no concentration beside the values); hit rate 0.33% among 330,000;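 active means mean of two replicates above 20%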;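 further: 0% = compound-free wells with enzyme and 100% = wells lacking proteasome; stock transfer was 100 nL into about 20 µL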
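Material: human UCH37 enzyme supplied as purified proteasome complex / Amount: 0.15 nM proteasome as dispensed / Buffer or medium: pH 7.4 Tris-HCl (50 mM) with ovalbumin, ATP-MgCl2, DTT / Times: preincubation 30 min, reaction 25 min, room temperature / Technique: AMC fluorescence from Ub-AMC cleavage, excitation 355 nm, emission 460 nm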
ALR inh – inhibitors of human sulfhydryl oxidase ALR | AID 485317 | inhibition, % (test concentration not listed) | P55789 | purified ALR, DTT oxidation, H2O2 HRP-luminol luminescence | hit rate 3.8% among 290,000;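 active means mean and each replicate at 75% or more; inconclusive means only one of the two met; inactive means neither met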;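 further: stock transfer was 7.5 nL into about 7.5 µL; 0% = neutral wells and 100% = wells with inactivated enzyme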
Target sequence (P55789 whole entry, looked up): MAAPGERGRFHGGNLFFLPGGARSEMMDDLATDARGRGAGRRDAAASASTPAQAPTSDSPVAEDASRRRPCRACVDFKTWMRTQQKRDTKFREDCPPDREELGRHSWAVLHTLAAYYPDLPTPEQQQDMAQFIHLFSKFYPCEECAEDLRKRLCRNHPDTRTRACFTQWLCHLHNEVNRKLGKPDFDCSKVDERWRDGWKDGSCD
Beta2AR agonist – human beta-2 adrenergic receptor agonism by FAP; P07550; Am2.2-beta2AR cells, FAP receptor internalization, flow cytometry; reference of the scale not given here; response, % (test concentration not listed); hit rate 0.43% among 340,000;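 active means response above a set limit, near 3 SD of response in nonfluorescent compounds, cut at about 42% in these data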;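 further: stock transfer was 100 nL into about 11 µL; a reference agonist was the positive control; negative values mostly stem from fluorescent compounds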
Target sequence (P07550 whole entry, looked up): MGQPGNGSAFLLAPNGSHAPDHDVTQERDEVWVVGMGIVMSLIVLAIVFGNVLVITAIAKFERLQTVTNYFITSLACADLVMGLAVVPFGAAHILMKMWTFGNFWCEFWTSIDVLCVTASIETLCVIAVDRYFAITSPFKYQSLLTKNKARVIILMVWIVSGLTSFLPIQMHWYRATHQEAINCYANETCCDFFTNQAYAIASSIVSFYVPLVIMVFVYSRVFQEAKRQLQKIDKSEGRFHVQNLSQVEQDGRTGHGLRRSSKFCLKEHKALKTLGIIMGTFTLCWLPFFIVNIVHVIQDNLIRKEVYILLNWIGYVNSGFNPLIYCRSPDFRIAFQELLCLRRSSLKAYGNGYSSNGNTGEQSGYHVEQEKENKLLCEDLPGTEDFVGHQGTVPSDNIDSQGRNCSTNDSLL
rRNA inh HTS OD600 – recorded beside rRNA inh HTS, whose call it bears; OD600 change, %; measured here: OD600 growth;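 optical density of the mix in the first replicate; 0 = DMSO median and -100 = no signal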
rRNA inh HTS RFP – also measured in rRNA inh HTS; calls as there; RFP signal change, %; measured here: RFP humanized mutant strains;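 first replicate; 0 = DMSO median and -100 = no signal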
The depositor's hits bear a star; i = inactive; ? = inconclusive; nt = not tested or not shown.

SMILES | rRNA inh HTS | rRNA inh HTS OD600 | rRNA inh HTS RFP | E coli growth | HNF4A DNA FP | FGF22 binding | UCH37 inh | ALR inh | Beta2AR agonist
COc1cc(-c2ccc3oc(-c4cccc(C)c4)c(C#CC4(O)CCCCC4)c3c2)cc(OC)c1OC | 4 | 8 | -2.8 | nt | -2.7 | i | nt | 0 | 15
CCCOCC(O)CC(CC)C(=O)NNC(=S)Nc1ccccc1 (stereo not drawn) | 8 | 10 | -1.8 | 0.73 | 0.9 | i | 1.9 | 7 | 2
COCC(C)N1CCC(Oc2ccc(C(=O)N3CCCC3)cc2)CC1 (stereo not drawn) | 4 | 2 | -4.2 | 0.72 | 0.9 | i | 2.5 | -2 | -8
O=C(Nc1ccccc1-c1nnn(CC(=O)N2CCCc3ccccc32)n1)c1ccco1 | nt | nt | nt | 0.72 | 0.1 | nt | 3.8 | -13 | 9
CN1CCN(C(=O)/C(=C\c2ccccc2)c2ccccc2)CC1 | nt | nt | nt | 0.68 | 0.9 | nt | 1.2 | -1 | -3
CN(CCCn1c(=S)[nH]c2ncccc2c1=O)Cc1ccccc1 | nt | nt | nt | 0.7 | 1.9 | nt | 0.8 | -15 | 10
CCCn1nnnc1NCc1cccc(Cl)c1 | -4 | -5 | -1.4 | 0.68 | 1.1 | i | -0.1 | nt | -2
CCCn1c(N)c(N2CCCCC2)c(=O)n(CC(=O)Nc2ccccc2C(F)(F)F)c1=O | 15 | 14 | 0.2 | 0.72 | 5.7 | i | 1.7 | 46 | -5
CCOc1ccc(S(=O)(=O)N(C)C)cc1-c1nc2c(C(C)(C)C)nn(C)c2c(=O)[nH]1 | nt | nt | nt | 0.7 | 3.1 | nt | -35 | -11 | -3
Cn1cnnc1Sc1ccc(C(=O)NCCC(c2ccccc2)c2ccccc2)cc1[N+](=O)[O-] | -3 | -3 | -3.2 | 0.74 | 2.5 | i | 5.4 | -4 | 4
CCS(=O)(=O)c1ccc(O)c(NC(=O)NC2CCCCC2)c1 | 3 | -5 | -3.7 | 0.67 | 12 | i | 4.3 | nt | 2
Cc1cccc(-c2ccc3c(c2)C2CC3CCN2C)c1 (stereo not drawn) | 6 | -7 | -4.0 | nt | 0.4 | i | nt | nt | -2
O=C(Nc1ncccn1)c1cccc(Cl)c1 | 5 | 9 | -1.0 | 0.64 | 0.0 | i | 1.0 | nt | -3
COc1ccc(CNC(=O)CSc2ncnc3nc[nH]c23)cc1 | nt | nt | nt | 0.74 | -0.4 | nt | 2.7 | -3 | 2
Brc1ccccc1C1Nc2cccc3cccc(c23)N1 | -51 | 58 | -24 | 0.69 | 0.6 | i | 2.2 | -2 | -4
O=C(NC(=S)N1CCN(c2ccc(C(F)(F)F)cc2[N+](=O)[O-])CC1)c1cccs1 | nt | nt | nt | 0.69 | -1.9 | nt | 5.7 | 39 | -2
CCC(=O)N1CCc2cc(S(=O)(=O)N3CCN(c4ccccc4)CC3)ccc21 | 10 | 4 | 3.2 | 0.7 | -3.3 | i | 1.3 | 4 | -12
CCOc1ccc2c(c1)nc(SCC(=O)c1ccc(Br)s1)n2C | nt | nt | nt | 0.71 | 1.7 | nt | 5.1 | 22 | -15
Cc1ccc(-c2nn(CC(=O)Nc3ccc4c(c3)nc3n4CCOC3)c(=O)c3ccccc23)cc1 | nt | nt | nt | 0.64 | 4.6 | nt | -0.5 | -11 | 4
CC[C@]12c3[nH]c4cc(-c5ccco5)ccc4c3CCN1C(=O)[C@@H](CC(=O)NCCCOC)C[C@@H]2C(=O)N1CCN(C(=O)c2ccco2)CC1 | 20 | 12 | 10 | 0.71 | 4.8 | i | -18 | nt | 3

Next section, overlapping the part above by 2 compounds.
SMILES | rRNA inh HTS | rRNA inh HTS OD600 | rRNA inh HTS RFP | E coli growth | HNF4A DNA FP | FGF22 binding | UCH37 inh | ALR inh | Beta2AR agonist
Cc1ccc(-c2nn(CC(=O)Nc3ccc4c(c3)nc3n4CCOC3)c(=O)c3ccccc23)cc1 | nt | nt | nt | 0.64 | 4.6 | nt | -0.5 | -11 | 4
CC[C@]12c3[nH]c4cc(-c5ccco5)ccc4c3CCN1C(=O)[C@@H](CC(=O)NCCCOC)C[C@@H]2C(=O)N1CCN(C(=O)c2ccco2)CC1 | 20 | 12 | 10 | 0.71 | 4.8 | i | -18 | nt | 3
O=C(CSc1n[nH]c(-c2ccc(S(=O)(=O)NC3CCCCC3)cc2)n1)N1CCCC1 | nt | nt | nt | 0.67 | 2.2 | nt | -9.8 | -5 | -4
O=C(NCc1ccc2c(c1)OCO2)C1CC(c2ccc(Cl)cc2)=NO1 (stereo not drawn) | nt | nt | nt | 0.74 | 1.6 | nt | 2.1 | -9 | -4
Cc1ccc(NC(=S)N(CCN(C)C)C(C)c2ccco2)cc1Cl (stereo not drawn) | -8 | -13 | 13 | 0.65 | 4.3 | i | 2.9 | -17 | 9
Cc1nn(CC(=O)NCCCN2C(C)CCCC2C)c(=O)c2cc3occc3n12 (stereo not drawn) | 9 | 12 | 0.3 | 0.69 | 0.1 | i | 5.7 | 0 | -7
O=C(O)c1cc(-c2ccccc2)c(N2CCOCC2)s1 | nt | nt | nt | 0.73 | -5.0 | nt | 7.4 | 99* | 17
CN(C)c1ccc(N2CC(C)(C)C2=O)cc1 | 21 | 12 | -0.4 | 0.68 | 0.4 | nt | 0.3 | 99* | 4
Cc1cc(C(=O)N2CCN(c3ncccc3C#N)CC2)no1 | 0 | -6 | -3.6 | 0.7 | 1.2 | i | -99 | -13 | 2
CCCCc1ccc(NC(=O)C(=O)NCCN2CCN(Cc3ccc([N+](=O)[O-])cc3)CC2)cc1 | 12 | 9 | 0.2 | 0.73 | -1.1 | i | 4.4 | 2 | -12
CCn1c(=O)n(CCOC)c(=O)c2c3c(sc21)CCCC3 | nt | nt | nt | 0.67 | -1.9 | nt | 3.0 | -5 | -5
Cc1nn(-c2ccccc2)nc1CNS(C)(=O)=O | 1 | 0 | -2.0 | 0.7 | -7.1 | i | -0.2 | -9 | 2
O=C(NCC(O)c1ccc([N+](=O)[O-])cc1)C1=COCCO1 (stereo not drawn) | 1 | 15 | 1.3 | 0.67 | -1.8 | i | 2.3 | -1 | -4
O=C(NCC(=O)N(c1cccc(F)c1)C(C(=O)NCC1CCCO1)c1ccccc1)c1ccco1 (stereo not drawn) | nt | nt | nt | 0.71 | -0.1 | nt | 4.9 | nt | -7
CCCCCC(=O)N1C[C@H](O)[C@@H](n2cc(-c3ccc(F)cc3)nn2)C[C@@H]1c1ccc(OC)cc1 | -4 | -13 | 17 | nt | -0.8 | i | nt | nt | nt
N#CCCN(C(=O)COC(=O)CCNS(=O)(=O)c1ccccc1)c1ccccc1 | nt | nt | nt | 0.68 | 5.8 | i | 5.0 | nt | 11
O=C(O)CSc1nc2ccc(Cl)cc2[nH]1 | nt | nt | nt | 0.65 | -1.2 | nt | 4.8 | -5 | -3
O=C(Nc1ccc2c(c1)OCCO2)C1c2ccccc2OCC(=O)N1C1CC1 (stereo not drawn) | 14 | 6 | -2.5 | nt | -2.1 | i | nt | nt | nt
Cc1ccc(SCCOCCN2CCOCC2)cc1 | 7 | 12 | 0.8 | 0.61 | 0.0 | i | 6.1 | -10 | -4
O=C(CSc1ccc2nnc(-c3ccccn3)n2n1)Nc1ccc2c(c1)OCO2 | 6 | 8 | 1.5 | 0.71 | -1.1 | i | 2.2 | -2 | -8
Cc1ccc(-n2nc3ccc(NC(=O)c4ccco4)cc3n2)cc1 | nt | nt | nt | 0.68 | -1.1 | nt | -4.8 | -15 | -24
CCC(C)NS(=O)(=O)c1ccc(NC(=O)C(Sc2ccccc2)c2ccccc2)cc1 (stereo not drawn) | -5 | -24 | 6.1 | 0.71 | -1.5 | i | 4.1 | 1 | -2
CCC(C)NC(=O)Cn1cnc([N+](=O)[O-])c1 (stereo not drawn) | 13 | 11 | 3.0 | 0.71 | 2.9 | nt | 2.2 | -3 | 5
CCC(c1nnc(SCc2nc3ccccc3s2)n1Cc1ccccc1)N(C)C (stereo not drawn) | nt | nt | nt | 0.74 | 2.4 | nt | -0.1 | -5 | -1
O=C(NC(=S)Nc1ccc(CN2CCOCC2)cc1)c1ccc([N+](=O)[O-])cc1Cl | -11 | -7 | -2.4 | 0.69 | -1.1 | i | 5.1 | 4 | -34
COc1ccccc1CN1CCNC(=O)C1CC(=O)N(C)Cc1cnccn1 (stereo not drawn) | 20 | 3 | 2.0 | 0.69 | 2.0 | i | 1.9 | nt | -3
Cc1occc1C(=O)Nc1ccc2c(c1)CCC2 | -13* | 5.4* | 4.6* | 0.64 | -0.6 | i | 7.3 | 96* | -3
CCOC(=O)C1=C(C)NC(=O)NC1c1cccs1 (stereo not drawn) | 10 | 3 | -4.3 | 0.71 | -0.9 | i | 0.2 | -4 | 0
COc1ccc(NC(=O)Cc2nnc(SCC(=O)Nc3nccs3)n2C)cc1 | 6 | 10 | -0.3 | 0.62 | 5.9 | i | 2.2 | 1 | -14
COc1ccc(CCn2c(=N)c(C(=O)NCc3ccco3)cc3c(=O)n4ccccc4nc32)cc1OC | 22 | 5 | -12 | 0.68 | -6.8 | i | 7.7 | nt | 16
COc1ccc(N2CC(C(=O)Nc3ccc(S(=O)(=O)N4CCCC4)cc3)CC2=O)cc1 (stereo not drawn) | 1 | 2 | 3.7 | 0.7 | -0.8 | i | -1.4 | 1 | 5
Cc1ccc(N(C(=O)Cc2cccs2)C(C(=O)NCC2CCCO2)c2ccncc2)cc1 (stereo not drawn) | 7 | -2 | 4.5 | 0.7 | 1.2 | i | 0.7 | -3 | -6
COc1ccc(OC)c(CN(CCCN2CCOCC2)S(=O)(=O)c2ccc(NC(C)=O)cc2)c1 | nt | nt | nt | 0.68 | 1.2 | nt | -0.3 | 0 | 1
O=C(CSc1ccc(-c2cccnc2)nn1)Nc1ccccc1C(F)(F)F | -1 | -3 | -0.6 | 0.69 | -2.5 | i | 3.3 | 4 | -15
COc1ccc(CCN(C(=O)c2cccc(F)c2)C2CC(=O)N(c3ccc(OC)cc3)C2=O)cc1 (stereo not drawn) | nt | nt | nt | 0.73 | -1.7 | nt | 1.7 | -1 | -1
O=C(Nc1ccccc1F)c1ccc(S(=O)(=O)NCC2CCCO2)cc1 (stereo not drawn) | nt | nt | nt | 0.69 | -0.6 | nt | 0.3 | 0 | 0
COc1cccc(S(=O)(=O)NCC(=O)N2CCCC2)c1 | -1 | 4 | -2.1 | 0.72 | 2.4 | i | 2.5 | nt | 0
Fc1cccc(Cl)c1-c1nnc2ccc(C(F)(F)F)cn12 | 10 | 3 | -1.9 | 0.59 | -2.1 | i | -1.1 | 2 | 7
CN(C)c1ccc(C2CC(=O)NC3=C2C(=O)CC(C)(C)C3)cc1 (stereo not drawn) | 12 | -3 | 4.7 | 0.71 | 0.6 | i | -2.9 | ? | -4
COc1ccccc1CN1CC(C(=O)NCc2cccc(C)n2)CCC1=O (stereo not drawn) | 2 | -1 | -3.2 | 0.69 | 2.8 | i | 4.1 | 0 | -2
O=C(O)C(=O)Nc1ncn[nH]1 | -3 | 8 | -1.9 | nt | -1.7 | i | nt | nt | nt
COc1ccc(C#Cc2c(-c3ccccc3)n(C)c3ccccc23)cc1 | 0 | -11 | 0.1 | 0.69 | 5.2 | i | -100 | 2 | 3
CCCn1c(C(C)Nc2nc(C)cs2)nc2cc(Cl)c(Cl)cc21 (stereo not drawn) | -23 | -19 | 1.1 | 0.64 | 0.0 | i | 5.1 | nt | -6

Not all compounds are listed, so the mix of outcomes need not match the whole.
